Screens deposited in PubChem BioAssay by several laboratories.
Mtb growth = M. tuberculosis H37Rv growth inhibitors, H37Rv strain (AID 1626) | actives 0.95% (n = 220,000) | M. tuberculosis H37Rv growth inhibition; higher % means a stronger effect | inhibition, % at 10 µM, or IC50 in µM where a hit was titrated;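 active = confirmed in a dose series; inconclusive = inhibition above 80% but not taken into the dose series; inactive = below 80% or under 30% at every dose of the series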;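 also: bacteria incubated seven days before Alamar blue readout; 0% = bacteria only wells and 100% = bacteria with antibiotic wells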
RecA intein inh = Mtb RecA intein splicing inhibitors, primary screen, biochemical, fluorescence, HTS; inhibition, %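 (about 9 µM by stock and volumes)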; cell-free RecA intein splicing; Protein RecA (Mycobacterium tuberculosis (strain ATCC 25618 / H37Rv)), P9WHJ3; actives 0.75% (n = 290,000); in the data active = inhibition above about 30%; inconclusive = no clear call, values can overlap the other calls;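 also: 0% = vehicle wells and 100% = reference inhibitor control wells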
Target sequence (P9WHJ3 whole entry, looked up): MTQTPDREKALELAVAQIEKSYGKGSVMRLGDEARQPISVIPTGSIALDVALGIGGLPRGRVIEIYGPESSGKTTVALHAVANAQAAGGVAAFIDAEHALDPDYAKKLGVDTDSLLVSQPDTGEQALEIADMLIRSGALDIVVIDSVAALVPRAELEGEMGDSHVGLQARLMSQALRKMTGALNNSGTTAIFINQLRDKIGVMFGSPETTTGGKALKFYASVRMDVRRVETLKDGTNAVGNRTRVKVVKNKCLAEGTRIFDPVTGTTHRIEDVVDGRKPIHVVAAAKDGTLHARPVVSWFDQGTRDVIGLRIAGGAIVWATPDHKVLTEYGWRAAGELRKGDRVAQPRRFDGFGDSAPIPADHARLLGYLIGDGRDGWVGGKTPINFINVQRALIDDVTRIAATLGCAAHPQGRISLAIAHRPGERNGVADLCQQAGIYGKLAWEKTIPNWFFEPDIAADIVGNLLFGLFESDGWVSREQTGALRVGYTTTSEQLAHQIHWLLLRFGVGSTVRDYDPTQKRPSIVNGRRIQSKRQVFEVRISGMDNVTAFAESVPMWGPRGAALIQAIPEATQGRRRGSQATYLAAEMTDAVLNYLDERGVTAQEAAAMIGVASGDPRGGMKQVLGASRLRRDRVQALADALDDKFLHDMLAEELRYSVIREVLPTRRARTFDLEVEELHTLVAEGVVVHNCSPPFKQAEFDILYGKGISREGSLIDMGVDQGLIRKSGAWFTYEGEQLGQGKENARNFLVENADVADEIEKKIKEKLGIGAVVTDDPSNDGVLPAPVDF
Arbovirus inh = antivirals against arbovirus infection, primary screen, cell-based, full library, 10K replicate subset; arbovirus infection cell-based antiviral screen; inhibition, % at 10 µM; actives 0.37% (n = 200,000);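 active = inhibition from about 30%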;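 also: bluetongue infection of BSR cells; cell survival read as ATP light after 72 h; 0% = infected wells without compound and 100% = uninfected wells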
Mtb bLac sens = beta-lactam sensitization of Mtb H37Rv, H37Rv. M. tuberculosis H37Rv growth with meropenem, percent inhibition; hits of this screen are not shown here. inhibition, % at 25 µM. actives 0.27% (n = 330,000). AID 434955, 2010;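 active = about 74% or more and at least 40 points above the plate without the antibiotic, then above 30% in a dose series; inconclusive = first-round hits that could not be retested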;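 also: growth measured after seven days incubation then overnight dye step; 0% = bacteria only wells and 100% = bacteria with antibiotic; twin plates without the antibiotic show which effects depend on it; some results filed as inactive read as strong as hits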
YopH inh = YopH tyrosine phosphatase inhibitors, primary screen, biochemical, fluorescence Ex485/Em525; actives 0.16% (n = 140,000); AID 898, 2007; YopH tyrosine phosphatase [Yersinia enterocolitica]; inhibition, %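 (about 10 µM by stock and volumes)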;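 active = inhibition of 50% or more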;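 also: controls were vehicle for no effect and minimum signal wells for full effect; inactives centre near -20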
Arbovirus inh repeat = further read-out of Arbovirus inh, marked with its call; inhibition, %; measured here: 10K subset replicate screen; many hits read low in the repeat;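 first of two repeat runs on a subset; 0% = infected and 100% = uninfected wells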
Numbers without * were called inactive; & = joins results of further samples.

What do the screens show for `O=C(CCCN1CCC(O)(c2ccc(Cl)cc2)CC1)c1ccc(F)cc1`?
Mtb growth: 8.0%&3.6%&3.4%; RecA intein inh: -0.5&9.7; Arbovirus inh: -9.9&-4.1; Mtb bLac sens: -0.5&-3.8; YopH inh: -9.7

Results for COc1ccc(-n2c(=S)[nH]c3ccccc3c2=S)cc1 ?
RecA intein inh: -0.4; Mtb bLac sens: 6.6

What do the screens show for `CC1CCC(Nc2nnnn2-c2ccccc2)CC1` (stereo not drawn)?
Mtb growth: 12.0%; RecA intein inh: 1.4; Arbovirus inh: 4.4; Mtb bLac sens: 10.9; YopH inh: 2.6

What do the screens show for `CC(C)(C)C(=O)CNS(=O)(=O)c1ccc(S(=O)(=O)NC2CC2)cc1`?
RecA intein inh: -0.5; Mtb bLac sens: -3.2

What do the screens show for `O=C(NC12CC3CC(CC(C3)C1)C2)C1CC(=O)N(c2ccccc2)C1` (stereo not drawn)?
Mtb growth: -5.8%; RecA intein inh: 0.7; Arbovirus inh: 4.0; Mtb bLac sens: 8.7; YopH inh: -11.9

Results for Cc1nc2nc(SCC(=O)N3CCOCC3)nn2c(C)c1Cc1c(F)cccc1Cl ?
Mtb growth: -2.9%; Arbovirus inh: -6.7; Mtb bLac sens: 5.6; YopH inh: -34.5; Arbovirus inh repeat: -0.5

What do the screens show for `C#CCn1c(=NC(=O)c2ccc(S(=O)(=O)N3CCCc4ccccc43)cc2)sc2cc(S(N)(=O)=O)ccc21`?
Mtb growth: 5.0%; RecA intein inh: -1.7; Arbovirus inh: -15.3; Mtb bLac sens: 86.7; YopH inh: -12.6

How did COc1ccc(C(=O)Cn2nnc(-c3ccccc3NC(=O)C(F)(F)F)n2)cc1 do in these assays?
Mtb growth: -3.4%; RecA intein inh: 0.5; Arbovirus inh: -6.9; Mtb bLac sens: -6.0; YopH inh: -22.5

What do the screens show for `CCOC(=O)c1cnc2ccc(OC)cc2c1Nc1ccc2c(c1)OCCO2`?
Mtb growth: 23.1%; RecA intein inh: 21.8; Arbovirus inh: 20.3; Mtb bLac sens: 45.7; YopH inh: -18.0

How did O=C(C[n+]1ccccc1)c1ccc(-c2ccccc2)cc1 do in these assays?
Mtb growth: 5.8%; RecA intein inh: 0.9; Arbovirus inh: -16.6; Mtb bLac sens: -15.2

What do the screens show for `CN(C)c1ccc(NC(=O)Nc2ccc3snnc3c2)cc1`?
Mtb growth: -3.4%; RecA intein inh: -4.8; Arbovirus inh: -1.2; Mtb bLac sens: -1.3; YopH inh: -0.9

How did S=C(NCCCN1CCOCC1)N(Cc1ccccc1)Cc1ccccc1 do in these assays?
RecA intein inh: -1.5; Mtb bLac sens: -2.9

Results for Cc1ccc(NC(=S)N2CCN(C(=O)C3CCCO3)CC2)cc1 (stereo not drawn) ?
Mtb growth: -1.3%; RecA intein inh: -2.3; Arbovirus inh: 11.4; Mtb bLac sens: -3.9; YopH inh: 5.3

What do the screens show for `CC(=O)c1cnc(Nc2ccccc2)s1`?
Mtb growth: -5.0%; RecA intein inh: 2.5; Arbovirus inh: -1.6; Mtb bLac sens: -8.6; YopH inh: 10.2

How did CCCC(=O)Nc1cc(-c2nc3ncccc3o2)ccc1C do in these assays?
Mtb growth: -10.8%; RecA intein inh: -2.5; Arbovirus inh: -6.0; Mtb bLac sens: -2.7; YopH inh: -38.2

Entries from the list above with a halogen, in the order listed:
What do the screens show for `O=C(CCCN1CCC(O)(c2ccc(Cl)cc2)CC1)c1ccc(F)cc1`?
Mtb growth: 8.0%&3.6%&3.4%; RecA intein inh: -0.5&9.7; Arbovirus inh: -9.9&-4.1; Mtb bLac sens: -0.5&-3.8; YopH inh: -9.7

Results for Cc1nc2nc(SCC(=O)N3CCOCC3)nn2c(C)c1Cc1c(F)cccc1Cl ?
Mtb growth: -2.9%; Arbovirus inh: -6.7; Mtb bLac sens: 5.6; YopH inh: -34.5; Arbovirus inh repeat: -0.5

How did COc1ccc(C(=O)Cn2nnc(-c3ccccc3NC(=O)C(F)(F)F)n2)cc1 do in these assays?
Mtb growth: -3.4%; RecA intein inh: 0.5; Arbovirus inh: -6.9; Mtb bLac sens: -6.0; YopH inh: -22.5

Continued:
What do the screens show for `O=C1c2ccccc2C(Nc2ccc3c(c2)OCCO3)N1Cc1ccc2c(c1)OCO2` (stereo not drawn)?
Mtb growth: 2.6%; RecA intein inh: 1.0; Arbovirus inh: 0.1; Mtb bLac sens: 3.4; YopH inh: -8.8; Arbovirus inh repeat: -3.7

What do the screens show for `O=C(Cn1cnc(S(=O)(=O)N2CCCCC2)c1)N1CCN(c2ccc([N+](=O)[O-])cc2)CC1`?
RecA intein inh: -0.6; Mtb bLac sens: 1.7

Results for CN(CC(=O)NC1CCCCCC1)S(=O)(=O)c1cnc[nH]1 ?
Mtb growth: 3.6%; RecA intein inh: -1.0; Arbovirus inh: 4.0; Mtb bLac sens: -6.0

What do the screens show for `CCOc1cc(/C=N\NC(=O)OC)ccc1OC(=O)c1ccco1`?
Mtb growth: -4.0%; RecA intein inh: 25.2; Arbovirus inh: -4.4; Mtb bLac sens: -9.9

How did CCOc1ccccc1N=CC1=C(O)CC(c2ccccc2)CC1=O (stereo not drawn) do in these assays?
Mtb growth: 13.0%; RecA intein inh: -27.9; Arbovirus inh: 3.4; Mtb bLac sens: 1.1

How did COc1ccccc1C(=O)Nc1ccccc1N1CCN(S(C)(=O)=O)CC1 do in these assays?
Mtb growth: 2.6%; RecA intein inh: 0.0; Arbovirus inh: 14.8; Mtb bLac sens: 2.6; YopH inh: -18.9

How did Cc1ccc(C(=O)N/N=C\c2ccc(-c3ccc(Cl)c(Cl)c3)o2)cn1 do in these assays?
Mtb growth: inconclusive; RecA intein inh: 1.0; Mtb bLac sens: 91.9

What do the screens show for `CC1=CCC(C(=O)O)(C(=O)N/N=C/c2cccs2)C(c2ccc(F)cc2)C1` (stereo not drawn)?
Mtb growth: -2.4%; RecA intein inh: -0.9; Arbovirus inh: -1.1; Mtb bLac sens: 9.2; YopH inh: -40.9

How did COc1ccc2cc(C)c3nnc(SCC(=O)Nc4nc(-c5ccccc5)cs4)n3c2c1 do in these assays?
Mtb growth: -5.6%; RecA intein inh: -1.8; Arbovirus inh: -11.2; Mtb bLac sens: -1.1; YopH inh: -49.0

How did O=C1N(Cc2cccnc2)C[C@@H]2C[C@@H](c3ccc(C(F)(F)F)cc3)N3CCC[C@@]123 do in these assays?
Mtb growth: -6.6%; RecA intein inh: 0.1; Arbovirus inh: 5.4; Mtb bLac sens: -4.2

What do the screens show for `Cc1c(Br)ccc(NC(=O)COc2ccccc2C(N)=O)c1C`?
Mtb growth: -0.3%; RecA intein inh: 1.3; Arbovirus inh: -1.3; Mtb bLac sens: 6.9

How did O=C1OC(c2ccc(F)cc2)=N/C1=C\C=C/c1ccccc1 do in these assays?
RecA intein inh: 0.8; Mtb bLac sens: 36.4

What do the screens show for `CN(C(=O)CN1C(=O)S/C(=C\c2ccc(Cl)cc2)C1=O)C1CCS(=O)(=O)C1` (stereo not drawn)?
RecA intein inh: -1.1; Mtb bLac sens: 4.5

How did CC(C)C(C(=O)NCc1ccco1)N(CC1CCCO1)C(=O)CNS(=O)(=O)c1ccc(F)cc1 (stereo not drawn) do in these assays?
RecA intein inh: 5.0; Mtb bLac sens: 1.3

Results for N=C1C(c2nc3ccccc3c(=O)[nH]2)=C(O)CN1CCO ?
Mtb growth: -6.8%; RecA intein inh: -1.6; Arbovirus inh: 2.6; Mtb bLac sens: 0.4; YopH inh: -13.0

Results for O=S(=O)(Nn1c(O)c(C=C2N=c3ccccc3=N2)sc1=S)c1ccccc1 ?
Mtb growth: -2.6%; RecA intein inh: -3.0; Mtb bLac sens: -6.7

Results for CCCCn1c(=O)[nH]c(=O)c2c1nc(COc1ccc(C#N)cc1)n2CCC ?
Mtb growth: 2.6%; RecA intein inh: -0.7; Arbovirus inh: -4.0; Mtb bLac sens: -3.9; YopH inh: -5.4

How did COCCN1CCn2c(nc3cc(NC(=O)Cn4nc(C)c5ccccc5c4=O)ccc32)C1 do in these assays?
Mtb growth: 3.8%; RecA intein inh: 0.6; Mtb bLac sens: -4.5

What do the screens show for `CC1(C)CC(=O)c2sc(NC(=O)CN3CCCCC3)nc2C1`?
Mtb growth: 16.0%; RecA intein inh: 0.8; Arbovirus inh: 0.4; Mtb bLac sens: -13.2; YopH inh: -21.7

What do the screens show for `CC(C)(Oc1ccc(Cl)cc1)C(=O)NC1CCCCC1`?
RecA intein inh: 0.6; Mtb bLac sens: -5.8

Results for COc1ccc(OC)c(C(c2nnnn2Cc2ccco2)N2CCN(C)CC2)c1 (stereo not drawn) ?
Mtb growth: 2.7%; RecA intein inh: 8.1; Arbovirus inh: 1.2; Mtb bLac sens: -14.0

What do the screens show for `O=C(/C=C/c1ccc(OC2CSC2)cc1)c1ccc(Cl)cc1`?
Mtb growth: 5.9%; RecA intein inh: -22.5; Arbovirus inh: -0.7; Mtb bLac sens: 8.3; YopH inh: -21.1

What do the screens show for `CC(=O)c1ccccc1NC(=O)CSc1nnc(Cc2csc(C)n2)o1`?
RecA intein inh: 0.5; Mtb bLac sens: 9.4

How did CCC(c1nnnn1C(C)(C)C)N1CCN(c2cc(Cl)ccc2C)CC1 (stereo not drawn) do in these assays?
Mtb growth: 5.2%; RecA intein inh: 15.3; Arbovirus inh: 2.0; Mtb bLac sens: 4.2; YopH inh: -37.6

What do the screens show for `Cc1nc(SCc2ccccc2)c([N+](=O)[O-])[nH]1`?
Mtb growth: 43.2%; RecA intein inh: 0.9; Arbovirus inh: 8.1; Mtb bLac sens: -1.0; YopH inh: -16.9

How did O=C(NCc1cccs1)C1CCC(CNS(=O)(=O)c2ccc(Br)s2)CC1 (stereo not drawn) do in these assays?
Mtb growth: 1.7%; RecA intein inh: 2.9; Arbovirus inh: 0.8; Mtb bLac sens: -1.1; YopH inh: -20.4

How did Cn1c(-c2ccccc2Br)n[nH]c1=S do in these assays?
Mtb growth: 4.1%; RecA intein inh: 2.6; Mtb bLac sens: -6.0; YopH inh: -31.2

How did CC(C)CNc1nc(N)c([N+](=O)[O-])c(N2CCCCCC2)n1 do in these assays?
RecA intein inh: 1.6; Mtb bLac sens: -7.9

How did Cc1nc(NC(=S)NC(=O)c2cncc(Br)c2)ccc1Br do in these assays?
Mtb growth: 59.7%; RecA intein inh: -1.2; Arbovirus inh: -7.5; Mtb bLac sens: -4.7

Results for Cc1ccc(S(=O)(=O)N/N=C\c2cc([N+](=O)[O-])ccc2Cl)cc1 ?
Mtb growth: -5.4%; RecA intein inh: -0.6; Arbovirus inh: -10.6; Mtb bLac sens: 9.2; YopH inh: -43.7

Results for O=c1[nH]c(=O)n(-c2cccc(F)c2)c(O)c1/C=C1\C=Nc2ccccc21 ?
RecA intein inh: 4.1; Mtb bLac sens: 48.8

What do the screens show for `O=[N+]([O-])c1ccc(C2Oc3ccccc3C3CC(c4ccccc4)=NN32)s1` (stereo not drawn)?
Mtb growth: inconclusive; Arbovirus inh: -32.7; Mtb bLac sens: 97.6; YopH inh: -15.3

What do the screens show for `O=C(c1ccc(F)c(F)c1)N1CCCc2ccccc21`?
RecA intein inh: 1.7; Mtb bLac sens: 2.1

Results for COc1cc2ccccc2cc1C(=O)OCC(=O)N1CCOCC1 ?
Mtb growth: -12.6%; RecA intein inh: -5.2; Arbovirus inh: 4.0; Mtb bLac sens: 0.5; YopH inh: -22.9

What do the screens show for `Cc1ccc(CNC(=S)Nc2ccc(C)c([N+](=O)[O-])c2)cc1`?
Mtb growth: 5.9%; RecA intein inh: -0.5; Arbovirus inh: 3.5; Mtb bLac sens: -4.1; YopH inh: -1.7

How did CC(OC(=O)c1ccc2ncsc2c1)C(=O)NC1CCCCC1C (stereo not drawn) do in these assays?
RecA intein inh: 2.9; Mtb bLac sens: -0.8

What do the screens show for `CC(C)(Oc1ccc(Cl)cc1)C(=O)Nc1ccc(S(=O)(=O)Nc2ncccn2)cc1`?
RecA intein inh: -1.1; Mtb bLac sens: 1.9

Results for CC(C)CCNC(=O)c1cc(-c2ccco2)nc2ccccc12 ?
Mtb growth: -14.5%; RecA intein inh: -2.1; Arbovirus inh: -9.8; Mtb bLac sens: 68.2; YopH inh: 4.1

Results for CCc1nnc(NC(=O)C2CC(=O)N(C3CCCC3)C2)s1 (stereo not drawn) ?
RecA intein inh: -1.9; Mtb bLac sens: -4.0

Results for Cc1cccc(N2C(=O)C(O)=C(C(=O)c3cccs3)C2c2ccccc2)n1 (stereo not drawn) ?
Mtb growth: -7.9%; RecA intein inh: 0.4; Mtb bLac sens: -0.5

What do the screens show for `CC1(C)Cc2c(sc3nc(SCC(=O)NCc4ccco4)n(-c4ccccc4)c(=O)c23)CS1`?
Mtb growth: 9.5%; RecA intein inh: 1.1; Arbovirus inh: 1.9; Mtb bLac sens: 9.0; YopH inh: -4.8

An excerpt; count on the stated rates, not on these rows.
